# TsaE inh: displaces an ADP probe from E. coli YjeE (TsaE); P0AF67; purified YjeE, fluorescence polarisation of a bound ADP probe; Potency, µM; 71,000 compounds, 0.05% hits; AID 605; active = well fitted falling curve; inconclusive = weaker or top-dose-only fall, or a rising curve; inactive = flat or poorly fitted curve;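 note: top concentration of the series not given in the record; excess ADP was the control for the full effect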
#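 Purified YjeE (10 uM) with BODIPY Texas Red-labeled ADP probe (2 uM); compounds pin-transferred, 15 min at room temperature. Binding inhibition read as decreased fluorescence polarization; ADP titration as control.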
# Bst PK mod: pyruvate kinase (B. stearothermophilus) modulation | AID 361 | Potency, µM | partly purified Bacillus stearothermophilus pyruvate kinase, luminescence ATP production; ribose 5-phosphate activator present at AC10 | 51,000 compounds, 1.2% hits; in the data active means potency below about 11 µM; inconclusive means mostly about 12 µM to 25 µM; inactive means weaker than that;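 the screen sought inhibitors and activators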;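 note: potency is the fitted concentration of half-maximal effect; scaled between full activation by ribose 5 phosphate and full inhibition by luteolin; about four in five hits inhibit and the cells do not say which; series up to 57 µM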
# The depositor's hits bear a star; i = inactive; ? = inconclusive; · = no result given.
COC(=O)/C=C\C(=O)N[C@@H]1CC[C@@]2(O)[C@H]3Cc4ccc(O)c5c4[C@@]2(CCN3CC2CC2)[C@@H]1O5
  TsaE inh: i
  Bst PK mod: ·
O=C(C1CC(c2ccc(Cl)c(Cl)c2)=NO1)N1CCC2(CC1)OCCO2 (stereo unspecified)
  TsaE inh: i
  Bst PK mod: >57
Nc1c(C(=O)OC2CCCCC2)c2nc3ccccc3nc2n1CC1CCCO1 (stereo unspecified)
  TsaE inh: i
  Bst PK mod: ·
Oc1ccc2c3c1O[C@H]1c4c(c5ccccc5n4Cc4ccccc4)C[C@]4(O)[C@H](C2)N(CC2CC2)CC[C@@]314
  TsaE inh: i
  Bst PK mod: ·
O=C(Oc1ccccc1)N1CCC2(CC1)CN(Cc1ccncc1)C2
  TsaE inh: i
  Bst PK mod: ·
CN[C@H]1[C@H](C)O[C@@H](O[C@@H]2C/C=C(/C)C/C(C)=C\C=C/CC[C@@H](C)CNC(=O)/C=C\C=C/[C@H]2C)C[C@@H]1O
  TsaE inh: i
  Bst PK mod: ·
CCC(=O)OC1(c2cccc(C)c2)CC(C)N(C)CC1C (stereo unspecified)
  TsaE inh: i
  Bst PK mod: >57
Cc1cnn(C2CCN(C)CC2)c1N
  TsaE inh: i
  Bst PK mod: >57
Nc1cc(Cl)cc(Cl)c1
  TsaE inh: i
  Bst PK mod: ·
CN1CCN(c2ccc([N+](=O)[O-])c3[nH]o[n+](=O)c23)CC1
  TsaE inh: i
  Bst PK mod: ·
ClCCCCl
  TsaE inh: i
  Bst PK mod: ·
COC(=O)[C@H]1C[C@@H]1[C@H](NP(=O)(c1ccccc1)c1ccccc1)c1ccccc1
  TsaE inh: i
  Bst PK mod: ·
COc1ccc(C[C@@H](N)c2ccc(OC)cc2)cc1
  TsaE inh: i
  Bst PK mod: ·
COc1ccc2c(c1)[nH]c1c(C)nccc12
  TsaE inh: i
  Bst PK mod: ·
COc1ccc(C[C@@H]2NC[C@H](O)[C@H]2OC(C)=O)cc1
  TsaE inh: i
  Bst PK mod: ·
c1ccc(C2CC2)c(OCC2=NCCN2)c1
  TsaE inh: i
  Bst PK mod: ·
CON(C)C(=O)Nc1ccc(Cl)cc1
  TsaE inh: i
  Bst PK mod: >57
COc1ccccc1CN1CCCC2(CCN(C(=O)Oc3ccccc3)CC2)C1
  TsaE inh: i
  Bst PK mod: ·
C=COC(C)=O
  TsaE inh: i
  Bst PK mod: ·
O=C(CN1CCCC1=O)N1CCOCC1
  TsaE inh: i
  Bst PK mod: >57
S=C=S
  TsaE inh: i
  Bst PK mod: ·
CC(Cl)Cl
  TsaE inh: i
  Bst PK mod: ·
CC(=NCc1ccc2c(c1)OCO2)c1c(O)n(C)c(=O)n(C)c1=O
  TsaE inh: i
  Bst PK mod: >57
CN1CCN(c2nccc3c2ncn3C)CC1
  TsaE inh: i
  Bst PK mod: >57
CC1(C)CC(n2[nH]c(=O)c3c2NC(=O)CSC3c2ccc(F)cc2)CCO1 (stereo unspecified)
  TsaE inh: i
  Bst PK mod: >57

# 2 records picked at random from those above:
CN1CCN(c2ccc([N+](=O)[O-])c3[nH]o[n+](=O)c23)CC1
  TsaE inh: i
  Bst PK mod: ·
CN[C@H]1[C@H](C)O[C@@H](O[C@@H]2C/C=C(/C)C/C(C)=C\C=C/CC[C@@H](C)CNC(=O)/C=C\C=C/[C@H]2C)C[C@@H]1O
  TsaE inh: i
  Bst PK mod: ·

# More structures:
Cn1c(=O)cc(OCC(=O)N2CCN(Cc3ccc4c(c3)OCO4)CC2)c2ccccc21
  TsaE inh: i
  Bst PK mod: >57
C(#CCN1CCOCC1)COC/C=C/c1ccccc1
  TsaE inh: i
  Bst PK mod: >57
CO[C@@H](C)[C@](O)(C(=O)OCC1=CCN2CC[C@@H](O)[C@H]12)C(C)C
  TsaE inh: i
  Bst PK mod: ·
CN1C(=O)N(C)C(=O)C2(Cc3ccccc3N3CCOCC32)C1=O (stereo unspecified)
  TsaE inh: i
  Bst PK mod: >57
C=C(C)C(=O)OCC1CO1 (stereo unspecified)
  TsaE inh: i
  Bst PK mod: ·
NN=C(N)N
  TsaE inh: i
  Bst PK mod: ·
O=C(c1cc(-c2ccccc2)nc2ccccc12)N1CCC2(CC1)OCCO2
  TsaE inh: i
  Bst PK mod: ·
NC(=O)c1cc(N2CC2)c([N+](=O)[O-])cc1[N+](=O)[O-]
  TsaE inh: i
  Bst PK mod: ·
C=C(C)[C@H]1CN[C@H](C(=O)O)[C@@H]1CC(=O)O
  TsaE inh: i
  Bst PK mod: ·
CCCCOC(=O)COc1cc(C)cc2oc(=O)c3c(c12)CCC3
  TsaE inh: i
  Bst PK mod: ·
C=CC#N
  TsaE inh: i
  Bst PK mod: ·
COc1ccc(CC2C(=O)N(C)C(=O)N(C)C2=O)c(OC)c1
  TsaE inh: i
  Bst PK mod: >57
O=C(O)/C=C\CO
  TsaE inh: i
  Bst PK mod: ·
CC(C)OC(=O)c1c(N)n(CC2CCCO2)c2nc3ccccc3nc12 (stereo unspecified)
  TsaE inh: i
  Bst PK mod: >57
CCOC(=O)c1cncn1[C@H](C)c1ccccc1
  TsaE inh: i
  Bst PK mod: ·
O=C(c1cc2ccccc2oc1=O)N1CCC2(CC1)OCCO2
  TsaE inh: i
  Bst PK mod: >57
O=[As](O)(O)c1ccc(N=Nc2ccc([As](=O)(O)O)cc2)cc1
  TsaE inh: i
  Bst PK mod: ·
CC(C)OCCCNC(=O)c1c(N)n(Cc2cccs2)c2nc3ccccc3nc12
  TsaE inh: i
  Bst PK mod: >57
Nc1ccccc1-c1ccccc1
  TsaE inh: i
  Bst PK mod: ·
CCOc1ccc2[nH]c(=O)c(CN(CCO)C3(c4nnnn4C4CCCCC4)CCCCC3)cc2c1
  TsaE inh: i
  Bst PK mod: >57
CC(C)N(CC[C@@](C(N)=O)(c1ccccc1)c1ccccn1)C(C)C
  TsaE inh: i
  Bst PK mod: ·
O=P1(Nc2cccnc2)COc2ccccc2OC1
  TsaE inh: i
  Bst PK mod: >57
COc1ccc(Cl)cc1NC1=NCC(C)S1 (stereo unspecified)
  TsaE inh: i
  Bst PK mod: >57
CNP(=S)(NC)OCCOc1ccc(OC)cc1
  TsaE inh: i
  Bst PK mod: >57
CC[C@@H](CO)NC(=O)[C@H]1C=C2c3cccc4c3c(cn4C)C[C@H]2N(C)C1
  TsaE inh: i
  Bst PK mod: ·

# Some of these compounds in order of length of the SMILES, rising.
C=CC#N
  TsaE inh: i
  Bst PK mod: ·
NN=C(N)N
  TsaE inh: i
  Bst PK mod: ·
O=C(O)/C=C\CO
  TsaE inh: i
  Bst PK mod: ·
Nc1ccccc1-c1ccccc1
  TsaE inh: i
  Bst PK mod: ·
COc1ccc(Cl)cc1NC1=NCC(C)S1 (stereo unspecified)
  TsaE inh: i
  Bst PK mod: >57
CNP(=S)(NC)OCCOc1ccc(OC)cc1
  TsaE inh: i
  Bst PK mod: >57
O=P1(Nc2cccnc2)COc2ccccc2OC1
  TsaE inh: i
  Bst PK mod: >57
C(#CCN1CCOCC1)COC/C=C/c1ccccc1
  TsaE inh: i
  Bst PK mod: >57
CCOC(=O)c1cncn1[C@H](C)c1ccccc1
  TsaE inh: i
  Bst PK mod: ·
O=C(c1cc2ccccc2oc1=O)N1CCC2(CC1)OCCO2
  TsaE inh: i
  Bst PK mod: >57
CCCCOC(=O)COc1cc(C)cc2oc(=O)c3c(c12)CCC3
  TsaE inh: i
  Bst PK mod: ·
COc1ccc(CC2C(=O)N(C)C(=O)N(C)C2=O)c(OC)c1
  TsaE inh: i
  Bst PK mod: >57
CC(C)OC(=O)c1c(N)n(CC2CCCO2)c2nc3ccccc3nc12 (stereo unspecified)
  TsaE inh: i
  Bst PK mod: >57
CC(C)N(CC[C@@](C(N)=O)(c1ccccc1)c1ccccn1)C(C)C
  TsaE inh: i
  Bst PK mod: ·
O=[As](O)(O)c1ccc(N=Nc2ccc([As](=O)(O)O)cc2)cc1
  TsaE inh: i
  Bst PK mod: ·
CC1(C)CC(n2[nH]c(=O)c3c2NC(=O)CSC3c2ccc(F)cc2)CCO1 (stereo unspecified)
  TsaE inh: i
  Bst PK mod: >57
Cn1c(=O)cc(OCC(=O)N2CCN(Cc3ccc4c(c3)OCO4)CC2)c2ccccc21
  TsaE inh: i
  Bst PK mod: >57
CC[C@@H](CO)NC(=O)[C@H]1C=C2c3cccc4c3c(cn4C)C[C@H]2N(C)C1
  TsaE inh: i
  Bst PK mod: ·
CCOc1ccc2[nH]c(=O)c(CN(CCO)C3(c4nnnn4C4CCCCC4)CCCCC3)cc2c1
  TsaE inh: i
  Bst PK mod: >57

# Later entries
CN1CCN(c2ncnc3ccc(Br)cc23)CC1
  TsaE inh: i
  Bst PK mod: ·
CCCSc1nc(O)c(CC)c(=O)n1C(C)CC (stereo unspecified)
  TsaE inh: i
  Bst PK mod: >57
N[C@@H](Cn1oc(=O)[nH]c1=O)C(=O)O
  TsaE inh: i
  Bst PK mod: ·
C[C@@H](Cc1cccc(C(F)(F)F)c1)NCCCc1ccccc1
  TsaE inh: i
  Bst PK mod: ·
COC(=O)c1ccccc1N
  TsaE inh: i
  Bst PK mod: ·
CN1C(=O)C(Cc2cccc3ccccc23)C(=O)N(C)C1=O
  TsaE inh: i
  Bst PK mod: ·
[O]=[Cd]
  TsaE inh: i
  Bst PK mod: ·
Cc1c(N=Cc2c(O)n(CCc3ccc(F)cc3)c(=O)[nH]c2=O)c(=O)n(-c2ccccc2)n1C
  TsaE inh: ·
  Bst PK mod: >26
CN(C)c1ccc(N=O)cc1
  TsaE inh: i
  Bst PK mod: ·
O=c1[nH]c(=O)n(Cc2ccccc2)c(O)c1C=NCCN1CCOCC1
  TsaE inh: ·
  Bst PK mod: >26
C[C@@]12CC[C@H]3[C@@H](CC[C@H]4C[C@@H](O)CC[C@]43C)[C@H]1CC[C@@H]2C(=O)C[C@H](O)C(F)(F)F
  TsaE inh: i
  Bst PK mod: ·
CC(C)CCn1c(N)c(C(=O)OCC2CCCO2)c2nc3ccccc3nc21 (stereo unspecified)
  TsaE inh: i
  Bst PK mod: >57
CNCCc1c(C)n[nH]c1C
  TsaE inh: i
  Bst PK mod: >57
CSCC[C@@H](N)P(C)(=O)O
  TsaE inh: i
  Bst PK mod: ·
Cn1c(O)c(C=NCCN2CCN(C(=O)c3ccccc3)CC2)c(=O)n(C)c1=O
  TsaE inh: i
  Bst PK mod: ·
CC(C)[C@@]1(NC(=O)[C@@H]2C=C3c4cccc5[nH]cc(c45)C[C@@H]3N(C)C2)O[C@]2(O)[C@H]3CCCN3C(=O)[C@H](Cc3ccccc3)N2C1=O
  TsaE inh: i
  Bst PK mod: ·
CCCCCCCCn1sccc1=O
  TsaE inh: ?
  Bst PK mod: ·
CC(C)(c1ccccc1)c1ccc(O)cc1
  TsaE inh: i
  Bst PK mod: ·
C[C@@]12CC[C@H](O[C@@H]3O[C@H](CO)[C@@H](O)[C@H](O)[C@@H]3O)C[C@@H]1CC[C@H]1[C@H]2CC[C@@]2(C)[C@@H](C3=CCOC3=O)CC[C@]12O
  TsaE inh: i
  Bst PK mod: ·
Cc1sc2ncn(CC(=O)NCC(=O)N3CCC4(CC3)OCCO4)c(=O)c2c1C
  TsaE inh: i
  Bst PK mod: >57
O/N=C1/C(=C\c2ccccc2)N2CCC1CC2
  TsaE inh: i
  Bst PK mod: >57
COc1c(C(C)(C)C)cc([N+](=O)[O-])c(C)c1[N+](=O)[O-]
  TsaE inh: i
  Bst PK mod: ·
O=P(CN1CCN(c2ccccc2)CC1)(N1CCCCC1)N1CCCCC1
  TsaE inh: i
  Bst PK mod: >57
FC(F)(F)c1nc2ccc(SSc3ccc4nc(C(F)(F)F)[nH]c4c3)cc2[nH]1
  TsaE inh: i
  Bst PK mod: ·
Nc1c(Br)cc([N+](=O)[O-])cc1[N+](=O)[O-]
  TsaE inh: i
  Bst PK mod: ·

O=C(Cc1ccc(Cl)c(Cl)c1)N1CCCC[C@H]1CN1CCCC1
  TsaE inh: i
  Bst PK mod: ·
CCOC(=O)[C@@]1(C#N)[C@@H]2C=CC(C(N)=O)=CN2[C@@H](C(N)=O)[C@@H]1c1cccc(Cl)c1
  TsaE inh: ·
  Bst PK mod: >26
COC(=O)CC1(CC(=O)OC)C(=O)NC(=O)NC1=O
  TsaE inh: i
  Bst PK mod: ·
Cc1n[nH]c(C)c1CCN
  TsaE inh: i
  Bst PK mod: >57
Fc1ccc(NC2=NCCS2)cc1Cl
  TsaE inh: i
  Bst PK mod: >57
COC(=O)c1c(C)ccc2c(O)c3c(cc12)C(=O)c1c2c(cc(O)c1C3=O)[C@@]1(C)O[C@@](C)(O2)[C@@H](O)[C@H](N(C)C)[C@H]1O
  TsaE inh: i
  Bst PK mod: ·
C#C[C@@]1(O)CC[C@@H]2[C@@H]3CCC4=CC(=O)CC[C@@]4(C)[C@H]3CC[C@]21C
  TsaE inh: i
  Bst PK mod: ·
COc1ccc(S(=O)(=O)Cc2ccc(C(=O)N3CCC4(CC3)OCCO4)o2)cc1
  TsaE inh: i
  Bst PK mod: >57

# Source: PubChem BioAssay

# A portion of the library; count on the stated rates, not on these rows.
